# Source: PubChem BioAssay (ICCB-Longwood Screening Facility, Harvard Medical School)
# Sa helicase inh = blocks Staphylococcus aureus DNA helicase; purified S. aureus helicase, fluorescence unwinding assay; about half of the hits fall short of the stated cut; inhibition, %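 (tested at about 80 µM)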; actives 0.05% (n = 120,000);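 active = both duplicates at 50% or more, or one of them with a favoured structure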;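 also: 0% = mean of negative control wells and 100% = mean of positive control wells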
# MgrA-DNA mod = S. aureus MgrA-DNA binding modulation; fluorescence polarization; inhibition, %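 (about 10 µg/mL by stock and volumes)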; actives 0.13% (n = 84,000); AID 602314;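 active = above 50% in either of two replicates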;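 also: 0% = protein plus DNA without compound and 100% = DNA alone without protein; higher means less MgrA bound to DNA so lower polarization; one replicate is shown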
# Starred values were filed as active, the others as inactive; . = not tested or not shown; & = joins results of further samples.
SMILES	Sa helicase inh	MgrA-DNA mod
O=C1N=C(N2CCCC2)S/C1=C/c1ccc(-c2ccccc2)o1	7	.
CC(=O)Nc1c(C#N)c2nc3ccccc3nc2n1C1CCCCC1	-41	-1.9
O=C(Nc1ccccc1)c1c2c(nc3ccccc13)CCC2	7	26
COc1ccccc1-c1nnc(C2CCN(S(=O)(=O)c3ccc(S(=O)(=O)N4CCCCCC4)cc3)CC2)o1	9	.
CCOC(=O)c1c(C)oc(=O)c(Br)c1C	.	1.5
C=CCn1c(=N)c(C#N)cc2c(=O)n3ccccc3nc21	4	1.3
O=C(CSc1ncnn1CC(=O)c1ccc(Br)cc1)c1ccc(Br)cc1	11	-0.5
Oc1ccccc1-c1cncn1Cc1ccccc1	.	0.9
CCCN(CC1CC1)C(=O)CSc1nnc(-c2ccco2)n1N	6	.
Oc1cccc2ccc(Nc3ccc4cccc(O)c4n3)nc12	-6	6.8
CCc1ccccc1NC(=O)N1CCN(c2nnc(C)c3c(C)n(-c4ccc(C)cc4)nc23)CC1	0	.
COc1ccc(Nc2nc(N3CCOCC3)nc(N3CCOCC3)n2)cc1	.	0.6
CCOC(=O)c1cnc2c(c(C)nn2C)c1N1CCC(n2cccc2)CC1	-17	.
COc1cc(OC)cc(C(=O)N(CCCN2C(=O)c3cccc4cccc(c34)C2=O)c2cccc(OC)c2)c1	.	-1.3
C=C(C)Cn1c(CNC(=O)c2ccc(F)cc2)nc2ccccc21	-23	.
O=C(c1ccncc1)N1C(=O)c2cccc3cccc1c23	5	.
O=S1(=O)CCn2c(ncnc2=Nc2cccc(C(F)(F)F)c2)N1	-11	.
CC(=O)N1CCc2cc(Br)cc(S(=O)(=O)CC(=O)N3CCc4ccccc43)c21	5	-0.1
COC(=O)C1=C(NC(=O)c2ccc(C(C)(C)C)cc2)CCS1	-4	2.3
CC(=O)N1CCN(c2ccccc2)CC1	.	3.1
CN(c1ccccc1)C(c1ccc(F)cc1)c1nnnn1CC1CCCO1 (stereo not given)	6	-3.8
COC(=O)C(=C/C=C/c1ccccc1)C(=O)OC	-5	.
c1ccc(N2CCN(CN3CCN(c4ccccc4)CC3)CC2)cc1	7	0.3
COC(=O)c1ccccc1NC(=O)c1cccc(C)c1	17	0.6
CSc1nc(/N=C/N(C)C)nn1CCC#N	.	-1.4
Cc1occc1C(=O)Oc1ccc2c(c1)OCO2	19	.
c1ccc(-c2nc3ccccc3o2)nc1	9	.
NNC(=O)c1n[nH]c2c1CCCC2	.	-1.7
Cc1ccc(C(=O)N2CCCN(C)CC2)o1	8	1.4
O=C(O)CSc1nnc(-c2ccccc2)o1	8	-2.1
CCc1nnc2sc(-c3ccc(NC(=O)c4cccnc4)cc3)nn12	-3	-1.0
COC(=O)C1=C(C)N=c2s/c(=C\c3cc(Br)ccc3OC(C)=O)c(=O)n2C1c1ccccc1 (stereo not given)	.	-1.7
CN(C)C(=O)CSc1nnnn1-c1ccccc1	14	-13
O=C(NC1CCN(C(=O)C2CCC2)CC1)C1CCCCC1	.	-1.4
CC(C)(C)n1ccc(-c2cc(F)cc(F)c2O)n1	.	2.5
N#Cc1c(NC(=O)c2cc3n(n2)C(C(F)(F)F)CC(c2ccc4c(c2)OCO4)N3)sc2c1CCCC2 (stereo not given)	.	0.9
Cn1c(CNC(=O)c2ccccc2)nc2ccccc21	-1	.
Cc1sc2nc(CSc3ncnc4sccc34)[nH]c(=O)c2c1C	-70	.
O=S(=O)(NCc1ccccc1Cl)c1cccc(S(=O)(=O)N2CCOCC2)c1	2	-1.9
COc1ccc(CN(C(=O)/C=C/C(=O)O)C2CC(=O)N(c3ccccc3)C2=O)cc1 (stereo not given)	11	-4.8
CCCN(CCC)S(=O)(=O)c1ccc(C(=O)N/N=C/C=C/c2ccccc2)cc1	.	-1.3
O=c1c2ccccc2c2ccccc2c(=O)n1Cc1ccccn1	10	3.0
S=C(SCc1c(Cl)cccc1Cl)N1CCSCC1	.	-2.2
C=CCn1c(C)cc(C(=O)CC#N)c1C	-7	-1.8
NC(=O)/C(=C\c1cccs1)c1ccsc1	.	-2.1
CC1CCCN(c2c3c(nc4ccccc24)CCCC3)C1 (stereo not given)	-7	0.7
Cc1ccc(-c2nc(CS(=O)(=O)CC(=O)N(C)Cc3ccccc3)c(C)o2)cc1	5	.
CC(C)Cn1c(=O)c2ccccc2n2c(CCC(=O)N3CCN(c4ccc(F)cc4)CC3)nnc12	-17	.
NC(=O)c1sc2c(c1N)C(c1ccccc1)CC(=O)N2 (stereo not given)	11	-3.0
CC12CCC(C/C1=N/O)C2(C)CBr (stereo not given)	-17	.
O=C(O)C1(Cc2nc3ccccc3s2)CCCC1	-4	.
Cc1ccc(C(=O)NC2CCCCNC2=O)cc1 (stereo not given)	.	-0.3
CSc1nc2ccc(NC(=O)c3ccc(N(C)C)cc3)cc2s1	-11	.
COC(=O)C1=C(O)/C(=C\c2ccc(CNS(=O)(=O)c3ccccc3)o2)N=C1C	10	10
N#Cc1c(Nc2ccccc2)[nH]c(=O)[nH]c1=O	.	-3.5
N#CC1(c2ccccc2)CCC(NCCCn2cnc3ccccc32)CC1 (stereo not given)	5	.
CCOC(=O)c1c(C)nn(-c2ncccc2NC(=O)CCC(=O)O)c1C	.	-2.0
CCOC(=O)c1c(SC)nc2c(C(F)(F)F)cccc2c1N1CCCC1	.	-0.9
Nc1ccccc1C(=O)NCC(F)(F)F	19	.
CNC(=O)COc1coc(CN2CCN(Cc3ccccc3)CC2)cc1=O	-16	.

# Of the compounds above, 2 have a Cl atom.
SMILES	Sa helicase inh	MgrA-DNA mod
O=S(=O)(NCc1ccccc1Cl)c1cccc(S(=O)(=O)N2CCOCC2)c1	2	-1.9
S=C(SCc1c(Cl)cccc1Cl)N1CCSCC1	.	-2.2

# (listing goes on)
SMILES	Sa helicase inh	MgrA-DNA mod
CS(=O)(=O)N(CC(=O)N1CCCCC1)c1sc2c(c1C#N)CCCC2	-7	1.1
O=C1/C(=C\c2cccs2)SC(=S)N1CC(=O)N1CCCc2ccccc21	-12	.
COc1cccc(NC(=O)/C(C#N)=C2\SCC(=O)N2c2ccc(C)cc2)c1	-25	.
Cc1ccc(-c2nc(SCC(=O)c3ccc(Cl)cc3)n[nH]2)cc1	4	.
Cc1cccc(-n2c(Cn3ccc(C)n3)n[nH]c2=S)c1	39	.
COc1cccc(C(=O)NC2CCCC2)c1	1	-3.0
CCOC(=O)C1=C(C)N=c2s/c(=C\c3ccc(SC)cc3)c(=O)n2C1c1ccc(OC)cc1OC (stereo not given)	.	4.1
COC(=O)c1cccc(S(=O)(=O)N2CCOCC2)c1	-12	2.0
O=c1c2ccccc2nnn1CSc1nnc2ccccn12	38	.
CNc1ccccc1C(=O)NCc1ccco1	.	-0.2
O=C(CSCC(=O)Nc1nc(-c2cccs2)cs1)Nc1nccs1	16	.
Nc1ncnc2c1ncn2CC(O)CO (stereo not given)	7	-1.8
CC(Oc1ccccc1)C(=O)Nc1nc2ccccc2s1 (stereo not given)	6	2.4
CN1C(=O)/C(=C\c2ccc(-c3ccc(S(N)(=O)=O)cc3)o2)c2ccccc21	-13	.
COc1ccc2c(c1)C=CC(C1C(=O)c3ccccc3C1=O)N2 (stereo not given)	7	-2.2
C/C(=C\C(=O)Nc1ccc(Cl)cc1)N1CCN(c2ccccc2F)CC1	7	.
O=S(=O)(CCO/N=C/c1cccs1)c1ccc(Cl)cc1	-17	.
O=C(NNC1=NCCC1)c1cccc(S(=O)(=O)N2CCOCC2)c1	6	.
FC(F)(F)c1cnc(Sc2ncn[nH]2)c(Cl)c1	.	-0.2
CC1=C(C(=O)OCCc2ccccc2)C(c2ccccc2C(F)(F)F)NC(=O)N1C (stereo not given)	.	-0.4
CNc1nc(C)c(C(=O)OCC(=O)OC)s1	2	-2.0
Cc1oc(-c2ccc3c(c2)OCCO3)cc1C(=O)NC(C(=O)O)C(C)C (stereo not given)	7	0.6
CSc1ncccc1C(=O)OC1CCOC1=O (stereo not given)	10	.
CC1(C(=O)O)CC(C)(C(=O)O)CC(C)(C(=O)O)C1 (stereo not given)	3	1.9
COC(=O)c1ccc(/C=N/NC(=O)CSc2nnc(C)n2-c2ccccc2)cc1	10	1.1
CC1CCN(Cn2c(=S)n(CN3CCC(C)CC3)c3ccccc32)CC1	8	1.1
CC1CC(C)CN(C(=O)c2ccc(CSc3nc4ccncc4n3Cc3ccc(F)cc3)cc2)C1 (stereo not given)	13	-2.0
CCCN1C[C@H](CSC)C[C@@H]2c3cccc4[nH]cc(c34)C[C@H]21	.	-0.9&1.2
NC1=NC(c2ccccc2)C(C(=O)c2ccccc2)N1 (stereo not given)	.	0.5
COc1ccc(CNCc2ccc(OC)c(C)c2)cc1	22	.

# Going on with the list.
# The line under a structure holds: Sa helicase inh	MgrA-DNA mod
Cc1cc(C)n2nc(C(=O)NC(C)(C)C)nc2n1
  26	.
CC(C)S(=O)(=O)c1cnc(-c2cccnc2)nc1N
  .	1.4
COc1ccc(C(=O)NC(=Nc2c(C)cccc2C)SC)cc1
  .	-1.4
O=C(O)c1ccccc1Sc1c(C(=O)O)cc([N+](=O)[O-])cc1[N+](=O)[O-]
  .	0.7
CCC1(C)NC(=O)N(/N=C/C(C)=C/c2ccccc2)C1=O (stereo not given)
  -11	.
COC(=O)c1ccc(-n2nc(SC)sc2=S)cc1
  17	.
CCn1c(-c2cccs2)nn(CN2CCN(S(=O)(=O)c3cccs3)CC2)c1=S
  -14	.
O=C(OCC1CCCN2CCCCC12)c1ccc(F)c(F)c1 (stereo not given)
  6	-1.1
CC1CCN(Cc2nc(-c3ccc(Cl)cc3)no2)CC1
  .	-0.6
Cn1c(=NC(=O)c2nc3ccccc3s2)sc2cc(S(C)(=O)=O)ccc21
  -24	.
N#Cc1ccc(C#CCOC(=O)Nc2ccc(Cl)cc2)cc1
  .	0.2
Cc1ccc(-c2[nH]ncc2CN(C)Cc2ccccc2)cc1
  8	-7.2
Brc1ccsc1-c1csc(-c2ccncc2)n1
  .	4.2
C=CCSc1nc(N)c(C(=O)Nc2ccccc2C)cc1C(N)=O
  -8	-0.3
COc1ccc(-c2nc3cc(N=Cc4cccc(OC)c4O)ccc3o2)cc1
  -7	-0.2
Cc1nccc(-c2nn(-c3ccc(F)cc3)ccc2=O)n1
  .	-0.9
Cc1cc(C)c2nc(N3CCC(C(=O)N4CC(C)CC(C)C4)CC3)sc2c1 (stereo not given)
  11	-0.2
Cc1ccc(CNC(=O)Nc2ccccc2)n1C
  .	3.8
CCOC(=O)c1cc(Sc2ccccc2N)cc(C(=O)OCC)n1
  .	-4.0
CC1CCC(NC(=O)C2CCCN2S(=O)(=O)c2ccc3c(c2)n(C)c(=O)c(=O)n3C)CC1 (stereo not given)
  15	.

# 5 compounds out of the list, ordered by length of the SMILES, lowest first.
# The line under a structure holds: Sa helicase inh	MgrA-DNA mod
c1ccc(-c2nc3ccccc3o2)nc1
  9	.
COc1cccc(C(=O)NC2CCCC2)c1
  1	-3.0
Cc1ccc(-c2[nH]ncc2CN(C)Cc2ccccc2)cc1
  8	-7.2
COc1ccc(-c2nc3cc(N=Cc4cccc(OC)c4O)ccc3o2)cc1
  -7	-0.2
CS(=O)(=O)N(CC(=O)N1CCCCC1)c1sc2c(c1C#N)CCCC2
  -7	1.1

# More structures
# The line under a structure holds: Sa helicase inh	MgrA-DNA mod
COc1ccccc1CNc1ccc(O)cc1
  8	0.9
COc1ccc(Nc2c(-c3ccsc3)nc3cnccn23)cc1OC
  3	.
COc1ccc(-c2cc(C(=O)OCC(=O)N(C)C)c3ccccc3n2)cc1
  -6	.
COCCOC(=O)C1=C(C)NC(C)=C(C(=O)OCCOC)C1c1cn(-c2ccccc2)nc1-c1ccc([N+](=O)[O-])cc1
  .	-1.6
CCOC(=O)Sc1ccc2ccccc2c1
  .	2.6
Cc1ccc(-c2nnc3c4ccccc4c(C)nn23)cc1S(=O)(=O)NC(C)C
  -4	.
O=C(CCCc1ccccc1)Nc1ccc(C(=O)O)cc1
  .	2.7
CCC(C)(C(=O)NC1CCCCC1)N(Cc1cccs1)C(=O)c1ccccn1 (stereo not given)
  3	.
OCC1(CO)CSC(Nc2ccc(F)cc2)=N1
  .	-0.9
O=C1c2ccccc2-c2nc3ncnn3c(-c3ccccc3Cl)c21
  -98	.
CCOC(CNc1nc(C)nc2sc3c(c12)CCCC3)OCC
  -2	-0.2
Cc1ccc(CNC(=O)c2cc(=O)[nH]c3ccc(S(=O)(=O)N4CCOCC4)cc23)cc1
  12	.
COc1cccc(CN2CCN(C(=O)c3cccs3)CC2)c1
  -13	-0.8
Cc1cc(Br)ccc1SCC(=O)OCC(=O)N1CCCC(C)C1 (stereo not given)
  -19	1.6
Cc1cc(N)n2nc(-c3ccccc3)cc2n1
  5	-2.0
CC(=O)Oc1ccc2nc(CN3C(=O)c4ccccc4C3=O)oc(=O)c2c1
  3	-3.4
COc1ccc(C2SCC(C(=O)NCc3ccc(F)cc3)N2C(C)=O)cc1 (stereo not given)
  7	-0.3
CCCCn1c(=O)[nH]c(=O)c2c1nc(CNc1ccc(Cl)cc1)n2CCC(C)C
  -14	.

# Look-ups from the results shown:
# MgrA-DNA mod result of `Cc1cc(Br)ccc1SCC(=O)OCC(=O)N1CCCC(C)C1` (stereo not given) is entered as 1.6
# MgrA-DNA mod result of `COc1ccc(C2SCC(C(=O)NCc3ccc(F)cc3)N2C(C)=O)cc1` (stereo not given) is entered as -0.3
# MgrA-DNA mod result of `CC(=O)Oc1ccc2nc(CN3C(=O)c4ccccc4C3=O)oc(=O)c2c1` is entered as -3.4
# Sa helicase inh result of `CCOC(CNc1nc(C)nc2sc3c(c12)CCCC3)OCC` is entered as -2
# Sa helicase inh result of `CCCCn1c(=O)[nH]c(=O)c2c1nc(CNc1ccc(Cl)cc1)n2CCC(C)C` is entered as -14
# Sa helicase inh result of `Cc1ccc(CNC(=O)c2cc(=O)[nH]c3ccc(S(=O)(=O)N4CCOCC4)cc23)cc1` is entered as 12

# Not all compounds are listed (hit frequency here may not be typical).
